Source: PubChem BioAssay
CBX7 AlphaScr – CBX7 chromodomain binding inhibitors, primary screen, biochemical, AlphaScreen | AlphaScreen His6-CBX7 / biotin-H3K27me3 peptide binding; hits give low values | normalised signal (fraction of DMSO) (concentration not given with the values) | 66,000 compounds, 1.1% hits | AID 1224903, 2016; in the data active = normalised signal below about 0.5;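 also: 100 nL library stock added to about 20 µL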
Target sequence (O95931 whole entry, looked up): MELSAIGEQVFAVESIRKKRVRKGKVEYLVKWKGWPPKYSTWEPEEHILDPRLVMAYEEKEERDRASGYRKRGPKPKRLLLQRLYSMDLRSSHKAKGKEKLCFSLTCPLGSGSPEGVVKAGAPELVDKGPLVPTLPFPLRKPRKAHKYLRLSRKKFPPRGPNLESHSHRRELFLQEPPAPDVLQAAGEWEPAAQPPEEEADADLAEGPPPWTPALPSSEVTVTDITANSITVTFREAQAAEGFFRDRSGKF
CBX7 AlphaScr z-score – second read-out of CBX7 AlphaScr, no call of its own (marks repeat the call); z-score; measured here: z-score of CBX7 signal; some inactives read as strong as hits; reference of the scale not given here;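 same signal on another scale; lower means less binding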
The depositor's hits bear a star; & = joins results of further samples. This is a subset; the hit share may differ from the screen's.

SMILES,CBX7 AlphaScr,CBX7 AlphaScr z-score
CCc1cccc(NS(=O)(=O)c2ccc3c(c2)CCN3C(C)=O)c1,1,0.41
COc1ccc(-c2cc(C(=O)N3CCN(Cc4ccccc4)CC3)no2)cc1OC,0.91,-1.1
O=C(NCc1ccccc1)c1c[nH]c2ccc(S(=O)(=O)Nc3ccc4c(c3)OCCO4)cc2c1=O,0.94,-0.75
CC(C)c1ccc(OCc2nc(-c3cccnc3)no2)cc1,1.1,0.12
CC(C)CCN1CC(C(=O)NCc2cccnc2)CC1=O (stereo not given),1,0.43
O=C1CN(C(=O)C2(c3ccc(Cl)cc3)CCCC2)C(c2ccc(F)cc2)c2cc(Cl)ccc2N1 (stereo not given),0.94,-0.084
CC(C)(Oc1ccc(Cl)cc1)C(=O)NCCCN1CCOCC1,1,0.7
CCN(CC)CCC(=O)N1c2ccccc2CCc2ccc(NC(=O)OC)cc21,1.2,2.9

Rewritten field by field: three of the compounds above
> CCN(CC)CCC(=O)N1c2ccccc2CCc2ccc(NC(=O)OC)cc21
  CBX7 AlphaScr = 1.2	CBX7 AlphaScr z-score = 2.9

> CC(C)c1ccc(OCc2nc(-c3cccnc3)no2)cc1
  CBX7 AlphaScr = 1.1	CBX7 AlphaScr z-score = 0.12

> COc1ccc(-c2cc(C(=O)N3CCN(Cc4ccccc4)CC3)no2)cc1OC
  CBX7 AlphaScr = 0.91	CBX7 AlphaScr z-score = -1.1

Next records follow.
SMILES,CBX7 AlphaScr,CBX7 AlphaScr z-score
CC(C)c1nc(N2CCN(C(=O)c3ccccc3)CC2)c(C#N)c2c1COC(C)(C)C2,0.92,-2.7
Cc1ccc(NC(=O)C2CCCN(S(=O)(=O)c3cccc4cccnc34)C2)c(C)c1 (stereo not given),1,-0.011
Cc1ccc(NC(=O)C(=O)NCCc2ccc(Cl)cc2)cc1,1.1,0.54
O=C1c2ccccc2C(=O)N1CC(O)COCc1ccccc1 (stereo not given),1,0.092
CN1CCCC(C(N)c2ccccc2)C1 (stereo not given),0.96,-0.71
Cc1ccc(-n2c(-c3ccccc3)cc3c2CC(C)(C)CC3=O)cc1Cl,0.82,-7.9
CCCCCn1c(=O)[nH]c2cc(C(=O)N3CCC(N4CCCCC4)CC3)ccc2c1=O,1,0.18
CCCOc1ccc(C(=O)N(Cc2ccc(OC)c(OC)c2)C2CCS(=O)(=O)C2)cc1 (stereo not given),0.89,-0.11
CCC1=Nc2cc(C(=O)NCCCN3CCCC3)ccc2Sc2ccc(C)cc21,0.99,-0.73
O=C(c1cc(-c2ccccc2)nc2ccccc12)N1CCc2ccccc2C1,1.1,0.23
Clc1cccc(Nc2nc(-c3ccccc3)nc3ccccc23)c1,1.1,3.8
O=C(Cc1ccccc1)NCc1nc2ccccc2n1Cc1ccccc1F,0.93,-0.86
COc1ccc(OC)c(NC(=O)c2cc3c(n(-c4ccccc4)c2=O)CC(C)(C)CC3=O)c1,1.2,3.8
CC(=O)N1CCc2cc(S(=O)(=O)NC(CC(C)C)C(=O)N(C)Cc3ccccc3)ccc21 (stereo not given),0.9,-1.9
CC1CCC(NC(=O)C2c3ccccc3C(=O)N2CCc2ccc(Cl)cc2)CC1 (stereo not given),0.91,-0.33
Cc1nc2nc(SCC(=O)NCc3ccccc3Cl)nn2c(C)c1Cc1ccccc1,1.2,1.3
CCC(=O)N1CCc2cc(S(=O)(=O)NC(C(=O)NCc3cccc(OC)c3)C(C)C)ccc21 (stereo not given),1,-0.17
NC(=O)C1CCN(C(=O)C2c3ccccc3C(=O)N3CCc4ccccc4C23)CC1 (stereo not given),0.91,-1.5
CCCCOc1ccc(NC(=O)c2cc3c(n(-c4ccc(Cl)cc4)c2=O)CCCC3=O)cc1,0.99,-0.18
Cn1c2ccccc2c2c(C(=O)N3CCN(c4ccc(Cl)cc4)CC3)cn(C3CCCC3)c(=O)c21,0.72,-6.9
Cc1cccnc1N1C(=O)C2C3c4ccccc4C(c4ccccc43)C2C1=O (stereo not given),1,0.23
CC(C)C(C)(NC(=O)c1cccnc1Oc1ccc(Cl)cc1)C(N)=O (stereo not given),1.1&1,2.6&0.013
COc1cc2ccccc2cc1C(=O)Nc1cccc(-c2nc3ncccc3o2)c1C,1,1.1
Cc1ccn2c(Nc3ccc4c(c3)OCO4)c(-c3ccc(O)cc3)nc2c1,0.82,-2.9
COc1cc2c(C(=O)N3CCN(c4ncccn4)CC3)cn(CC(C)C)c(=O)c2cc1OC,1.1,0.11
CCOc1cc(O)c(-c2n[nH]c(C)c2Oc2ccccc2)cc1CC,0.75,-3.8
COc1ccc(NC(=O)c2cc(-c3cccs3)on2)cc1,1.1,0.67
Nc1c(NCCN2CCCCC2)c2ccccc2oc1=O,0.95,-0.34
COc1ccccc1-n1cc(C(=O)NCC(=O)Nc2ccc(C)c(F)c2)c2ccccc2c1=O,0.87,-2
O=C(NCCN1CCOCC1)c1cc2sccc2n1Cc1ccc(Cl)cc1,0.92,-1.9
COc1ccc(NC(=O)Cn2cc(S(=O)(=O)c3ccc(C)cc3)c(=O)c3ccccc32)cc1OC,0.88,-1.7
CCn1c(SCC(=O)Nc2ccc(C)c(Cl)c2)nnc1-c1c[nH]c2ccccc12,1.1,0.74
CCOc1cccc(C(=O)Nc2ccc3oc(-c4ccc(Cl)c(Cl)c4)nc3c2)c1,0.98,-0.85
COc1ccc(-n2nnc3c(=O)n(CC(=O)Nc4cccc(Cl)c4)cnc32)cc1,0.92,-1.6
Cc1cc(C)cc(N2CC(c3nc4ccccc4[nH]3)CC2=O)c1 (stereo not given),1.1,0.72
COc1ccc2nc(N3CCC(C(=O)NCCCN4C(C)CCCC4C)CC3)sc2c1 (stereo not given),0.95,-0.83
CCOc1ccc2nc(N3CCC(C(=O)O)CC3)sc2c1,1,1.1
Cc1cccc(C(=O)Nc2ccc3oc(-c4ccccc4Br)nc3c2)c1,1.1,1.3
CCC1CCCCN1C(=O)C1(S(=O)(=O)c2ccc(C)cc2)CC1 (stereo not given),1,0.0023
O=C(NCCCN1CCN(c2ccccc2F)CC1)C1CC(=O)N(C2CCCC2)C1 (stereo not given),1,1.5
COc1ccc(N2C(=O)CC(Cc3ccc(Br)cc3)C2=O)cc1 (stereo not given),1,0.2
CCCCCc1nnc(NC(=O)c2cccc(C)c2)s1,1.2,2
Cc1ccc(Cc2c(C)nc3c(C(=O)N4CCN(c5cc(C)ccc5C)CC4)cnn3c2C)cc1,1,0.63
CCn1c(C(Cc2ccccc2)NC(=O)c2ccccc2)nc2ccccc21 (stereo not given),1.2,3.3
CC1CCN(c2nnc(NC(=O)c3csc4c3CCCC4)s2)CC1,1.1,0.86
CCn1cc(C(=O)NCCc2ccc(Cl)cc2)c2cc(OC)c(OC)cc2c1=O,0.98,-0.43
COc1ccc(NC(=O)C2CCN(S(=O)(=O)c3cccs3)CC2)c(OC)c1,0.99,-0.29
CCOc1cccc(C2CC(=O)Nc3cc(OC)cc(OC)c32)c1 (stereo not given),1.2,1.5
Cc1ccc(-c2cc(-c3ccccc3)n3ncnc3n2)cc1,1,0.013
Cc1onc(-c2ccccc2Cl)c1C(=O)NCCc1ccc(F)cc1,1.1,0.066
O=C(Nc1c(F)cc(F)cc1Br)c1csc2c1CCCC2,1,0.55
COc1ccc(N2Cc3cccc(C(=O)Nc4ccc(C)cc4)c3C2=O)cc1,0.9,-2.7
COc1cc(OC)cc(C(=O)N2CC(=O)Nc3ccc(Cl)cc3C2c2ccccc2)c1 (stereo not given),1.1,0.9
COc1ccccc1-c1c(C)nn2c(N(C)CCC#N)cc(C)nc12,0.98,-0.34
COc1ccc(OC)c(NC(=O)Cn2nc(Cc3cccnc3)c3ccccc3c2=O)c1,1,0.28
N=c1n(CCOc2ccccc2)c2ccccc2n1Cc1ccc(Cl)cc1,0.93,-2.6

Additional structures follow.
SMILES,CBX7 AlphaScr,CBX7 AlphaScr z-score
CCN(Cc1ccccc1)S(=O)(=O)c1ccc2oc(C(=O)O)c(C)c2c1,1.2,2.3
Cc1ccccc1Cc1c(C)nc2c(C(=O)NCCC3=CCCCC3)cnn2c1C,0.86,-3.7
NS(=O)(=O)c1ccc(CCNC(=O)c2ccc3nc(N4CCOCC4)sc3c2)cc1,1.1,3
c1ccc(CSc2nnc(Cc3c[nH]c4ccccc34)o2)cc1,0.93,-1.9
COc1ccc(-c2nnc(NC(=O)c3ccc(S(=O)(=O)N(C)c4ccccc4)cc3)o2)cc1,0.94,-1.3
COc1ccc(-n2c3c(cc(C(=O)Nc4cccc(C)n4)c2=O)C(=O)CC(C)(C)C3)cc1,1.1,1.6
c1cncc(-c2noc(COc3ccc4ccccc4c3)n2)c1,1.1,1.7
Cc1cccc(C)c1NC(=O)C1(N(Cc2ccccc2)C(=O)c2ccn[nH]2)CCCCC1,1&1,0.43&0.46
O=C(Nc1nnc(C2CC2)o1)c1ccc(S(=O)(=O)N2CCCc3ccccc32)cc1,0.69,-8.2
Cc1ccc2[nH]c(=O)c(CN3CCCCC3)c(-c3ccccc3)c2c1,1,0.96
COc1cc(OC)c(NC(=O)CN2CC(c3ccccc3)CC2=O)cc1Cl (stereo not given),1,0.39
Cc1nc(Nc2ccccc2F)c2c(C)c(C)sc2n1,0.47*,-0.69*
COc1ccc(CCNC(=O)c2ccc3c(c2)NC(=O)CS3)cc1OC,1.1,0.77
COc1ccc(OCCn2c(=N)n(Cc3ccccc3C)c3ccccc32)cc1,0.84,-4.4
Cc1ccc(-n2nc3c(c2NC(=O)c2ccc(Cl)cc2)CSC3)cc1,0.96,-0.69
NS(=O)(=O)c1ccc(CCNS(=O)(=O)c2ccc3[nH]c(=O)c(=O)[nH]c3c2)cc1,1.1,0.078
CCCNC(=O)C1CCN(S(=O)(=O)c2ccc3nc4c(c(C(=O)O)c3c2)CCCC4)CC1,1,1.1
CCn1c(CCCNC(=O)c2cccc(C)c2)nc2ccccc21,0.96,-1
CCOCCCNC(=O)CSCc1nc(-c2cccc(OC)c2)oc1C,1.4,4.1
Cc1nc2c(-c3ccc(F)cc3)c(C)nn2c(C)c1CCC(=O)N1CCOCC1,0.94,-0.39
C=C(C)c1cccc(C(C)(C)NC(=O)NCCc2ccncc2)c1,0.92,-1.5
COC(=O)CNC(=O)c1sc2ncn(Cc3ccccc3F)c(=O)c2c1C,1,0.17
CCCCNC(=O)c1cc(-c2ccccc2OC)on1,0.98,-0.018
CCC(C)Sc1oc(-c2cccs2)nc1S(=O)(=O)c1ccc(F)cc1 (stereo not given),1,0.072
CC(=O)N1CCc2cc(S(=O)(=O)NC(C(=O)N3CCN(c4ccccc4)CC3)C(C)C)ccc21 (stereo not given),0.87,-2.4
CCc1ccc(OCc2nc(-c3ccc(OC)c(OC)c3)no2)c(Br)c1,1.2,2.4
COc1ccc(-c2cc3nc(C)c(CCC(=O)Nc4ccc(C)cn4)c(C)n3n2)c(OC)c1,1,0.17
O=C(CC1Nc2ccccc2NC1=O)Nc1ccccc1 (stereo not given),1,0.14
Cc1cccc(OCC(=O)N(Cc2ccc(Cl)cc2)C2CCS(=O)(=O)C2)c1 (stereo not given),0.94,-0.06
COc1cccc(Nc2nc(C)nc3sc4c(c23)CCC4)c1,1,1
CCc1cccc(CC)c1NC1=NS(=O)(=O)c2ccccc21,0.95,-1.2
CCOc1cc2c(cc1OCC)C(c1cc(F)c(F)c(F)c1)NCC2 (stereo not given),1.2,3.4

Rewritten field by field: entries from further up
COc1ccc(-c2cc3nc(C)c(CCC(=O)Nc4ccc(C)cn4)c(C)n3n2)c(OC)c1
  CBX7 AlphaScr: 1; CBX7 AlphaScr z-score: 0.17

O=C(CC1Nc2ccccc2NC1=O)Nc1ccccc1 (stereo not given)
  CBX7 AlphaScr: 1; CBX7 AlphaScr z-score: 0.14

Cc1cccc(OCC(=O)N(Cc2ccc(Cl)cc2)C2CCS(=O)(=O)C2)c1 (stereo not given)
  CBX7 AlphaScr: 0.94; CBX7 AlphaScr z-score: -0.06

(cont.)
SMILES,CBX7 AlphaScr,CBX7 AlphaScr z-score
Cc1ccc(-n2ncc3c(NCc4ccc(F)cc4)ncnc32)c(C)c1,0.98,-0.49
CC(C)CC(=O)Nc1ccc2oc(-c3cccnc3)nc2c1,1,0.86
CC(N)C(=O)N1CCN(c2nc(-c3ccccc3)c3cc([N+](=O)[O-])ccc3n2)CC1 (stereo not given),0.87,-0.5
COC(=O)c1ccccc1NC(=O)COc1ccc(C(C)(C)c2ccccc2)cc1,1.2,7.6
Cc1ccc(Cl)cc1NC(=O)CCc1c(C)nc2ncnn2c1C,1.1,1.1
O=C(c1cnn(-c2ccccc2)c1-n1cccc1)N1CCN(c2ccccc2)CC1,0.98,-0.82
Cc1nc(Nc2ccc(C)c(Cl)c2)c2c3c(sc2n1)CCC3,1,1.4
COc1ccc(NC(=O)C2CC2(c2ccc(C)cc2)c2ccc(C)cc2)cc1 (stereo not given),1,0.32
CCc1cccc(C)c1NC(=O)c1cccc2c1C(=O)N(Cc1cccnc1)C2,1,0.4
Cc1ccc2oc(-c3ccc(C)c(NC(=O)c4cc5ccccc5o4)c3)nc2c1,0.99,-0.18
COc1cc(-c2ncnn2-c2ccc(Cl)cc2)cc(OC)c1OC,0.92,-1.6
COC(=O)c1ccc(Nc2cc(C)nc3cc(Cl)ccc23)cc1,1.1,0.78
O=C(O)C1C2C=CC(C2)C1C(=O)Nc1ncccc1O (stereo not given),0.93,-0.84
O=C(O)c1ccc(Nc2ccnc3cc(Cl)ccc23)cc1,1,1.3
